# Ecoli rRNA inh: inhibitors of bacterial rRNA selective over humanized ribosomes | E. coli WT GFP vs humanized-ribosome RFP mutants, fluorescence, 24 h; hits give low values; DMSO median 0, no signal -100 | GFP signal change (wild-type ribosome), % (concentration not given with the values) | 350,000 compounds, 1.6% hits | AID 720706;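 active = significant combined selectivity score with lowered wild-type GFP, culture density cut under 30%, mutant RFP and density less affected; inactive = any of these conditions unmet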; note: one replicate is shown; some compounds called inactive have numbers as strong as hits
# E coli growth: inhibitors of Escherichia coli growth | OD600, 23 h; hits give low values | OD600 absorbance (concentration not given with the values) | 330,000 compounds, 0.21% hits;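 active = OD600 absorbance below the run mean of sample wells minus 3.6 SD, in any replicate, cut at about 0.56 in these data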;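 note: stock transfer was 300 nL into about 60 µL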
# Vif TR-FRET: inhibitors of Vif binding to APOBEC3G peptide, primary screen, biochemical, TR-FRET, GST-Vif 1-94, biotin-A3G peptide, dose response retest (AID 1117319); TR-FRET GST-Vif / biotin-A3G peptide binding; higher % means a stronger effect; test concentration not given here; strong numbers were not always called active; inhibition, %, or IC50 in µM where a hit was titrated; 260,000 compounds, 0.57% hits;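 active = above the screen mean plus three standard deviations and confirmed in dose response; inconclusive = results disagree or hit not tested in dose response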;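 note: Vif residues 1-94 fused to GST binding biotinylated APOBEC3G peptide 110-148; 0% = full assay without inhibitor and 100% = GST in place of GST-Vif; retest series ran down from 100 µM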
# HNF4A DNA FP: change in binding of human HNF4 alpha to DNA | P41235 | HNF4a-FITC DNA binding, fluorescence polarization, 1 h | activity change, % at 10 µM | 360,000 compounds, 0.3% hits; in the data active = activity change above about 30%, passing the limit was not always enough;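 note: controls were the assay level and a saturating level of protein; the project sought stronger binding though the title names inhibitors; some compounds called inactive have numbers as strong as hits; positive values seem to mean higher polarization but the record does not say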
# MLL AF4-AF9 inh: MLL-AF4/AF9 protein interaction inhibition. inhibition, % at 10 µM. 350,000 compounds, 0.47% hits. AID 651704. AlphaScreen, biotin-AF4 peptide binding to FLAG-AF9;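 active = every replicate reaching a set inhibition limit, whatever the replicate mean, cut at about 25% in these data; inconclusive = mean inhibition reaches that limit but some replicates miss it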;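 note: 0% = plate neutral control median and 100% = total signal loss; the record names both 10 and 1 µM as test concentration; the first replicate is given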
# Target sequence (P42568 whole entry, looked up): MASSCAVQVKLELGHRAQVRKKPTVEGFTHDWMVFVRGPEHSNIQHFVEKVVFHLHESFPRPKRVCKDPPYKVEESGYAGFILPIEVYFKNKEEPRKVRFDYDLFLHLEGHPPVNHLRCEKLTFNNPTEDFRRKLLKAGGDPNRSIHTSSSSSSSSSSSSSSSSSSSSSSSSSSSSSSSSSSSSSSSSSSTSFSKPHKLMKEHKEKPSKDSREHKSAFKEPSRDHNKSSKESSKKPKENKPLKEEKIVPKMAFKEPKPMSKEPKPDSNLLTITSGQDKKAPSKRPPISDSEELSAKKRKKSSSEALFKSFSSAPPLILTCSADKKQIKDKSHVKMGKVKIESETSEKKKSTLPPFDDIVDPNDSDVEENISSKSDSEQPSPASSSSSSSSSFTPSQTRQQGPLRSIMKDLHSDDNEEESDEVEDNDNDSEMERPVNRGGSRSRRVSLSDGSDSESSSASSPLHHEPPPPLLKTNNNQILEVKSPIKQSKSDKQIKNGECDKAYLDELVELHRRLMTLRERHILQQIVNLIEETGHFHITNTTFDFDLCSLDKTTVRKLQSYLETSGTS
# ALR inh: inhibitors of human sulfhydryl oxidase ALR. P55789. purified ALR, DTT oxidation, H2O2 HRP-luminol luminescence. inhibition, % (test concentration not listed). 290,000 compounds, 3.8% hits;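 active = mean and each replicate at 75% or more; inconclusive = only one of the two met; inactive = neither met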;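 note: stock transfer was 7.5 nL into about 7.5 µL; 0% = neutral wells and 100% = wells with inactivated enzyme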
# Target sequence (P55789 whole entry, looked up): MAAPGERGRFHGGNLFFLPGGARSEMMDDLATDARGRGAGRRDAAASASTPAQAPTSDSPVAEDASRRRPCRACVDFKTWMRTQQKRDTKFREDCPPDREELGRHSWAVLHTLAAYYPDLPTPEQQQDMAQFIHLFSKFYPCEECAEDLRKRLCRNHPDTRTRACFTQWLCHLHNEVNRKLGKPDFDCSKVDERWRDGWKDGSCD
# FGF22 binding: binders of recombinant human FGF22 by thermal shift. 340,000 compounds, 1.5% hits. calls only at 9.99 µM. SYPRO orange fluorescence; percent of sucrose octasulfate shift, DMSO zero;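 active = melting point raised past a set limit in the mean and every replicate; inconclusive = no clear call; three in four hits are not shown here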
# Target sequence (Q9HCT0 whole entry, looked up): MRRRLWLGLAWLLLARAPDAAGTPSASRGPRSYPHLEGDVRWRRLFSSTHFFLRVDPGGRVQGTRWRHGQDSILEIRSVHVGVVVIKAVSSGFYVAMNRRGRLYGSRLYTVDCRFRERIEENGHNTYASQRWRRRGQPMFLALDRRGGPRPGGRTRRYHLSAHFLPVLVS
# Ecoli rRNA inh OD600: recorded beside Ecoli rRNA inh, whose call it bears; OD600 change, %; measured here: OD600 growth;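 optical density of the mix in the first replicate; 0 = DMSO median and -100 = no signal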
# Ecoli rRNA inh RFP: also measured in Ecoli rRNA inh; calls as there; RFP signal change, %; measured here: RFP humanized mutant strains;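 first replicate; 0 = DMSO median and -100 = no signal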
# * hit, by the source's call; i = inactive; ? = inconclusive; · = not tested or not shown; & = joins results of further samples.
(1) CCCC1(c2ccccc2)NC(=O)NC1=O (stereo not drawn)
(2) COc1ccc2c3c(n(C)c2c1)[C@H](CO)N(Cc1ccccc1F)CC31CCN(CC2CC2)CC1
(3) COc1ccc2c(c1)c(=O)c(C(=O)c1ccc(C)cc1)cn2CC(=O)Nc1ccc(F)cc1
(4) CCc1nc2sc3ccccc3c(=O)c2c(=O)n1CCOC
(5) CCOC(=O)CC(=O)Nc1nnc(CC(C)C)s1
(6) O=C(Nc1nnc(-c2ccc3c(c2)CCCC3)o1)C1COc2ccccc2O1 (stereo not drawn)
compound no. | 1 | 2 | 3 | 4 | 5 | 6
Ecoli rRNA inh | 3.0 | 0.4 | 2.0 | · | · | -36.1
Ecoli rRNA inh OD600 | 7.4 | -10.5 | 18.3 | · | · | -55.9
Ecoli rRNA inh RFP | -2.7 | 5.4 | -2.4 | · | · | -14.2
E coli growth | 0.652 | · | 0.714 | 0.716 | 0.726 | 0.756
Vif TR-FRET | 4.0% | · | -20.2% | ? | 13.8% | 3.5%
HNF4A DNA FP | 0.6 | · | -5.4 | 12.1 | -1.2 | -0.5
MLL AF4-AF9 inh | 0.7 | 40.0* | ? | · | · | 2.3
ALR inh | -4.2 | · | -7.1 | -7.0 | 9.4 | 64.8
FGF22 binding | i | i | i | · | · | i

(7) COc1ccc(/C=C/C(=O)OCC(=O)N2c3ccccc3CC2C)cc1 (stereo not drawn)
(8) CC(C)CC#Cc1cnc2c(c1)C(=O)N([C@H](C)CO)C[C@@H](C)[C@H](CN(C)Cc1ccc(C(=O)O)cc1)O2
(9) Cc1ccc(C)c(-n2nnnc2SCC(=O)NCCC2=CCCCC2)c1
(10) CCCNC(=O)C[C@@H]1CC[C@H]2[C@H](COc3ccc(NC(=O)c4ccc5c(c4)OCO5)cc3C(=O)N2C)O1
(11) COC1(OC)N=C(N)C2(C#N)C(c3ccccc3)NC(C)=CC12C#N (stereo not drawn)
(12) O=C(CN(Cc1ccccc1)S(=O)(=O)c1cccc(C(F)(F)F)c1)NC1CCCCC1
compound no. | 7 | 8 | 9 | 10 | 11 | 12
Ecoli rRNA inh | 2.5 | 3.1 | · | -6.5 | · | ·
Ecoli rRNA inh OD600 | 16.1 | 3.3 | · | -1.2 | · | ·
Ecoli rRNA inh RFP | 0.9 | -0.5 | · | -1.2 | · | ·
E coli growth | · | · | 0.605 | · | 0.77 | 0.716
Vif TR-FRET | -0.7% | · | 9.2% | · | 16.3% | ·
HNF4A DNA FP | 0.5 | · | 0.1 | · | -1.2 | 1.8
MLL AF4-AF9 inh | -1.3 | 0.9 | · | 0.5 | · | ·
ALR inh | · | · | 12.6 | · | -2.8 | 0.4
FGF22 binding | i | i | · | i | · | ·

(13) Cn1c2c(c(=O)n(C)c1=O)C(c1ccccc1Cl)C(C#N)=C(N)O2 (stereo not drawn)
(14) Cc1ccc(Cn2cc(CN3CC(N4CCN(C5CCN(C)CC5)CC4)CS3(=O)=O)nn2)cc1 (stereo not drawn)
(15) C[C@@H]1CN([C@H](C)CO)C(=O)c2cc(N(C)C)ccc2O[C@H]1CN(C)Cc1ccccc1
(16) Cc1ccc(S(=O)(=O)Nc2cccc3c2O[C@H](CN(C)Cc2ccc4c(c2)OCO4)[C@H](C)CN([C@H](C)CO)C3=O)cc1
(17) CO[C@H]1CN(C)C(=O)c2ccc(NC(=O)C3CC3)cc2OC[C@@H](C)N(C(=O)c2ccncc2)C[C@H]1C
(18) CC1CN(C)CCC1OC(=O)c1ccccc1 (stereo not drawn)
compound no. | 13 | 14 | 15 | 16 | 17 | 18
Ecoli rRNA inh | 8.8 | 19.1 | 2.2 | 1.5 | 2.3 | 18.9
Ecoli rRNA inh OD600 | 2.8 | 7.2 | 5.3 | -0.8 | 1.4 | 11.8
Ecoli rRNA inh RFP | 1.2 | 4.2 | -1.4 | 0.5 | -2.1 | 3.4
E coli growth | 0.659 | · | · | · | · | 0.628
Vif TR-FRET | 0.9% | · | · | · | · | ·
HNF4A DNA FP | -1.2 | -2.1 | · | · | · | -0.9
MLL AF4-AF9 inh | · | 0.8 | -4.0 | 11.9 | -0.6 | -2.5
ALR inh | 54.2 | · | · | · | · | -3.6
FGF22 binding | i | i | i | i | i | i

(19) O=C(NC1CCN(C(=O)NCc2ccccc2)CC1)c1cccc(F)c1
(20) CN(C)CCOC1c2ccccc2CSc2ccccc21 (stereo not drawn)
(21) CC(CC(=O)NNC(=O)c1ccncc1)c1ccccc1 (stereo not drawn)
(22) Cc1cc(NC(=O)c2ccc(C#N)cc2)on1
(23) Cc1nn(C)c(C)c1S(=O)(=O)N1CCCC(C(=O)NC2CCCCCC2)C1 (stereo not drawn)
(24) Cn1c(=O)c2nc(-c3ccccc3)c(-c3ccccc3)nc2n(C)c1=O
compound no. | 19 | 20 | 21 | 22 | 23 | 24
Ecoli rRNA inh | 4.1 | 10.6 | 10.0 | 6.3 | 1.7 | -20.4*
Ecoli rRNA inh OD600 | 0.3 | 1.9 | 19.9 | 2.8 | 2.0 | 2.7*
Ecoli rRNA inh RFP | 0.2 | 3.0 | -2.0 | 0.0 | 0.5 | -3.3*
E coli growth | 0.624 | 0.705 | 0.706 | 0.647 | 0.743 | 0.692
Vif TR-FRET | · | · | -2.9% | 31.0% | 18.6% | ·
HNF4A DNA FP | -1.6 | 3.1 | -2.2 | -0.1 | -0.4 | 2.0
MLL AF4-AF9 inh | 0.9 | · | 0.9 | -1.3 | -1.0 | 2.6
ALR inh | -1.7 | -4.5 | -0.7 | · | -2.7 | -2.4
FGF22 binding | i | i | i | · | i | i

(25) CC(C)Cc1nc2oc3c(Cl)ncnc3c2c2c1CCC2
(26) C[C@@H]1CN([C@@H](C)CO)C(=O)c2cc(C#CCc3ccccc3)cnc2O[C@@H]1CN(C)C(=O)C1CCCCC1
(27) COc1cc(C(=O)N/N=C/c2ccc(OC(=O)c3ccccc3Cl)cc2)ccc1O
(28) CC(=O)Nc1ccc(-c2ccnc3c2CC(C(=O)Nc2ccc(C(C)C)cc2)O3)cc1 (stereo not drawn)
(29) CCOC(=O)CC(NS(=O)(=O)c1ccc2[nH]c(=O)sc2c1)c1ccc(C)cc1 (stereo not drawn)
(30) Cc1cc(C)c2nc(C(F)(F)F)c(C#N)c(N)c2c1
compound no. | 25 | 26 | 27 | 28 | 29 | 30
Ecoli rRNA inh | -2.0 | 1.7 | -8.2 | -2.7 | -7.3 | ·
Ecoli rRNA inh OD600 | 15.0 | -1.4 | -15.9 | -28.3 | -18.8 | ·
Ecoli rRNA inh RFP | -1.9 | 0.2 | 7.5 | 2.1 | 6.4 | ·
E coli growth | 0.754 | · | · | · | 0.67 | 0.684
Vif TR-FRET | -0.2% | · | 6.8% | · | · | -1.1%
HNF4A DNA FP | 1.0 | · | -0.8 | 0.8 | 0.9 | 1.1
MLL AF4-AF9 inh | 2.5 | -1.0 | 2.4 | 0.0 | 0.6 | ·
ALR inh | 8.3 | · | -18.7 | · | 1.9 | -3.4
FGF22 binding | i | i | i | i | i | ·

(31) CC(=O)N1CCN(C(=O)CSc2nc3c(cnn3-c3ccccc3)c(=O)[nH]2)CC1
(32) CC(=NO)c1ccc2c(c1)C(=NO)c1ccccc1-2
(33) CC(C)C1Cc2[nH][nH]c(=O)c2C(C2CC2)O1 (stereo not drawn)
(34) CCOC(=O)C1=C(C)OC(N)=C(C#N)C1c1c(C)nn(-c2ccccc2)c1Cl (stereo not drawn)
(35) NC(=O)C1CCN(C(=O)C2CCC(=O)N(Cc3ccc(Cl)cc3)C2)CC1 (stereo not drawn)
(36) CCc1ccccc1Nc1ncnc2ccccc12
compound no. | 31 | 32 | 33 | 34 | 35 | 36
Ecoli rRNA inh | · | -44.5 | 8.8 | · | 17.8 | -17.1
Ecoli rRNA inh OD600 | · | -75.4 | 10.8 | · | 17.0 | 1.2
Ecoli rRNA inh RFP | · | -11.2 | 3.9 | · | 1.8 | -10.0
E coli growth | 0.726 | · | · | 0.721 | 0.687 | 0.646
Vif TR-FRET | -4.1%&-4.3% | 10.0% | · | -2.3% | · | -1.5%
HNF4A DNA FP | -1.8 | -3.4 | -0.5 | 0.3 | 1.8 | -4.2
MLL AF4-AF9 inh | · | 2.9 | -1.7 | · | 0.0 | -1.8
ALR inh | -6.3 | · | · | -89.7 | · | -1.6
FGF22 binding | · | i | i | · | i | i

(37) CC(C)(C)C(=O)Nc1ccc(N=Nc2ccccc2)cc1
(38) C[C@@H]1CN([C@@H](C)CO)C(=O)c2cc(NC(=O)Nc3cccc4ccccc34)ccc2O[C@@H]1CN(C)C
(39) C[C@H]1CN([C@@H](C)CO)C(=O)CCCn2nncc2CO[C@H]1CN(C)C(=O)Nc1ccc(N2CCN(C)CC2)cc1
(40) CCOC(=O)Cc1csc(NC(=O)CSc2nnc(C(C)C)n2C)n1
(41) Cc1nn(-c2ccc(Cl)cc2)c(=O)c2ccccc12
(42) COc1ccccc1CNC(=O)CN1C(=O)NC2(CCC(C)CC2)C1=O (stereo not drawn)
compound no. | 37 | 38 | 39 | 40 | 41 | 42
Ecoli rRNA inh | 6.9 | -0.2 | -0.3 | · | 14.6 | -1.8
Ecoli rRNA inh OD600 | 2.5 | -3.9 | 7.4 | · | 10.0 | -8.0
Ecoli rRNA inh RFP | 0.5 | 1.5 | 1.6 | · | -1.2 | -1.8
E coli growth | 0.698 | · | · | 0.741 | 0.662 | 0.69
Vif TR-FRET | 2.5% | · | · | 25.9% | -2.3% | -1.4%
HNF4A DNA FP | 2.5 | · | · | 0.4 | -1.4 | -1.3
MLL AF4-AF9 inh | 5.9 | 0.7 | 5.7 | · | -3.7 | -2.3
ALR inh | -4.8 | · | · | -4.4 | -14.9 | -1.4
FGF22 binding | i | i | i | · | · | i

(43) Cc1nc(NC(=O)c2ccc(Cl)cc2)sc1Cc1ccc2c(c1)OCO2
(44) Cc1cc(/C=C(\C#N)C(=O)OCC#N)c(C)n1CC(C)C
(45) Cc1ccc(NC(=O)c2ccc(CSc3ncnc4nc[nH]c34)cc2)c(C)c1
(46) COc1ccc2c(c1)S/C(=C\C(=O)c1ccncc1)N2C
(47) COCC(=O)Nc1ccc2c(c1)OC[C@H](C)N(Cc1ccccc1)C[C@@H](C)[C@@H](OC)CN(C)C2=O
(48) CCCOc1ccc(C(=O)c2ccccc2C(=O)O)cc1OCCC
compound no. | 43 | 44 | 45 | 46 | 47 | 48
Ecoli rRNA inh | · | -7.0 | · | · | -0.3 | -0.7
Ecoli rRNA inh OD600 | · | -14.4 | · | · | -0.4 | 1.1
Ecoli rRNA inh RFP | · | -0.3 | · | · | -1.0 | -2.3
E coli growth | 0.745 | 0.689 | 0.659 | · | · | 0.721
Vif TR-FRET | · | -15.4% | -8.6% | -0.1% | · | -1.6%
HNF4A DNA FP | 1.0 | 0.8 | -1.0 | 5.7 | · | -4.0
MLL AF4-AF9 inh | · | 12.1 | · | · | 3.7 | -0.7
ALR inh | -3.1 | · | · | -1.6 | · | 6.2
FGF22 binding | · | i | · | · | i | i

# Screening data from PubChem BioAssay.

# The list is partial, so the mix of outcomes need not match the whole.
